YopH inh – inhibitors of Yersinia enterocolitica YopH tyrosine phosphatase | fluorescence Ex485/Em525 | inhibition, %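 (about 10 µM by stock and volumes)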 | actives 0.16% (n = 140,000) | AID 898;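 active = inhibition of 50% or more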;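 also: controls were vehicle for no effect and minimum signal wells for full effect; inactives centre near -20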
Mtb bLac sens – beta-lactam sensitization of Mtb H37Rv | M. tuberculosis H37Rv growth with meropenem, percent inhibition; hits of this screen are not shown here | actives 0.27% (n = 330,000) | AID 434955 | inhibition, % at 25 µM;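 active = about 74% or more and at least 40 points above the plate without the antibiotic, then above 30% in a dose series; inconclusive = first-round hits that could not be retested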;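 also: growth measured after seven days incubation then overnight dye step; 0% = bacteria only wells and 100% = bacteria with antibiotic; twin plates without the antibiotic show which effects depend on it; some results filed as inactive read as strong as hits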
Mtb growth – M. tuberculosis H37Rv growth inhibitors, H37Rv strain (AID 1626) | M. tuberculosis H37Rv growth inhibition; higher % means a stronger effect | one-dose inhibition, % at 10 µM; IC50 in µM for titrated hits | actives 0.95% (n = 220,000);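 active = confirmed in a dose series; inconclusive = inhibition above 80% but not taken into the dose series; inactive = below 80% or under 30% at every dose of the series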;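 also: bacteria incubated seven days before Alamar blue readout; 0% = bacteria only wells and 100% = bacteria with antibiotic wells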
Arbovirus inh – arbovirus infection inhibition; arbovirus infection cell-based antiviral screen; inhibition, % at 10 µM; actives 0.37% (n = 200,000); AID 1251;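 active = inhibition from about 30%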;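 also: bluetongue infection of BSR cells; cell survival read as ATP light after 72 h; 0% = infected wells without compound and 100% = uninfected wells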
RecA splice inh – Mtb RecA intein splicing inhibition | P9WHJ3 | cell-free RecA intein splicing, fluorescence | inhibition, %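 (about 9 µM by stock and volumes)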 | actives 0.75% (n = 290,000); in the data active = inhibition above about 30%; inconclusive = no clear call, values can overlap the other calls;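 also: 0% = vehicle wells and 100% = reference inhibitor control wells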
Target sequence (P9WHJ3 whole entry, looked up, canonical isoform): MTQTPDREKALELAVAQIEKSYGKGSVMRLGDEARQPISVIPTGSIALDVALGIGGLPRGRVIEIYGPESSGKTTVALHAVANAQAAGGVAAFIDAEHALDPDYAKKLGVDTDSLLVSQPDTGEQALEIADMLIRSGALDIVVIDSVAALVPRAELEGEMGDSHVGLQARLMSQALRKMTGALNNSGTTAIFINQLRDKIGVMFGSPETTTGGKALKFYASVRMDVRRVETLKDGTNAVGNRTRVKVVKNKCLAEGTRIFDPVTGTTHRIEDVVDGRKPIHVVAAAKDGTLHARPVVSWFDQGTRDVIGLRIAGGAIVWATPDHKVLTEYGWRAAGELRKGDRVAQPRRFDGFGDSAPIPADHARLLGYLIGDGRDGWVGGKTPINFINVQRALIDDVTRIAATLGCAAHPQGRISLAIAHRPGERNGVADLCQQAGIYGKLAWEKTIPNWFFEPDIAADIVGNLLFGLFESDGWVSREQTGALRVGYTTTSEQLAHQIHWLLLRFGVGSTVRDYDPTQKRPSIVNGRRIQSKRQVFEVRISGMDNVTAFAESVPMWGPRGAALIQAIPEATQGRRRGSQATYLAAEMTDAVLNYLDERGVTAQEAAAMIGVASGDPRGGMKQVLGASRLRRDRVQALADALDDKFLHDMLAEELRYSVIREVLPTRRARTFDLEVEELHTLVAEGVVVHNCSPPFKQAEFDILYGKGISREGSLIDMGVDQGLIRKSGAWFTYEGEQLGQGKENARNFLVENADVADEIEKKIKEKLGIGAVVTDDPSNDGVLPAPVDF
Arbovirus inh repeat – also measured in Arbovirus inh; calls as there; inhibition, %; measured here: 10K subset replicate screen; many hits read low in the repeat;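 first of two repeat runs on a subset; 0% = infected and 100% = uninfected wells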
* = called active by the depositor; u = inconclusive; x = not tested or not shown. Not all compounds are listed; the hit share may differ from the screen's.

SMILES	YopH inh	Mtb bLac sens	Mtb growth	Arbovirus inh	RecA splice inh	others
COc1ccc(/C=N\NC(=O)c2ccc(Cn3cc(Br)c([N+](=O)[O-])n3)o2)c(OC)c1C	x	4	-2%	-3	-1.7
O=C(NN1CCN(Cc2ccccc2)CC1)c1ccc(Cl)cc1	x	-6	-1%	-1	0.2
COCCNC(=O)c1cc2nc(-c3ccccc3)cc(C)n2n1	x	3	-6%	-1	-2.4
Cc1ccc(S(=O)(=O)N2CCC(C(=O)NNC(=O)c3ccncc3)CC2)cc1	x	-8	-35%	6	-4.0
O=C(Nc1ccc(OC(F)(F)F)cc1)Nc1cccc([N+](=O)[O-])c1	-23	99	2%	-30	8.5
CCOc1ccc2c(CC)cc(=O)oc2c1OCC	-45	7	-2%	-3	1.3
CN(CC(=O)Nc1ccc(N2CCOCC2)cc1)C(=O)CCCOc1ccc(Cl)cc1Cl	x	-5	x	x	1.1
CCOC(=O)Cc1nnc(Nc2cccc(C)c2)c2ccccc12	-28	1	-4%	-6	-2.6
CCn1cc(CNC(=O)CSc2nc(-c3ccc(OC)c(OC)c3)cc(C(F)(F)F)n2)c(C)n1	-55	2	-1%	5	0.4
CCCn1c2ccccc2c2cnn(CC(=O)NCCCN3CCN(c4ccccc4)CC3)c(=O)c21	x	50	x	x	1.9
Cc1ncsc1C(=O)Nc1nc2c(s1)CC(C)CC2 (configuration not stated)	-26	82	14%	-9	-0.9
CN(CC(=O)Nc1cccc(F)c1)C(=O)c1cc(-c2ccccc2)nc2ccccc12	x	-10	x	x	-2.2
NS(=O)(=O)c1ccc(Sc2ccccn2)c([N+](=O)[O-])c1	x	21	-6%	x	-0.5
C=CCn1c(SCC(=O)Nc2cc(C)ccc2OC)nnc1-c1ccco1	-43	-2	-5%	4	0.9
CC(C)Oc1cccc(C(=O)N2CCCC2)c1	x	-7	0%	1	1.3
O=c1cc(N2CCc3ccccc32)[nH]c(=O)n1-c1ccccc1Cl	x	-6	7%	0	-3.1
COC(=O)CSc1ncnc2c1sc1nc(N3CCOCC3)c3c(c12)CCCC3	-12	1	-8%	0	-0.9
O=C(Nc1cccc(Cl)c1)c1cc(S(=O)(=O)N2CCOCC2)cs1	x	-26	x	x	0.8
COC(=O)NC1CSCC1OC(=O)CCN1C(=O)c2ccccc2C1=O (configuration not stated)	-34	-2	0%	3	-0.1
COc1cc(CN2CCN(c3cccc(C)c3C)CC2)cc(Br)c1O	-16	83	-5%	16	4.5	Arbovirus inh repeat=9
O=S1(=O)C=C(N2CCOCC2)c2ccccc21	-43	-11	-3%	-1	0.4
CCN(C(=O)Cc1c(C(=O)O)n(C)c2ccccc12)c1cc(OC)ccc1OC	x	-7	x	x	-1.4
O=C(Nc1cccc(Cl)c1)Nc1nnc(-c2ccccc2)o1	10	96	-13%	9	1.7
Nc1nc2c(s1)CC(c1ccccc1)CC2 (configuration not stated)	-17	1	6%	-7	3.3
CCCCCC1CCC(c2nnc(SCC(C)=O)o2)CC1 (configuration not stated)	x	4	7%	4	3.1

Arranged by length of the SMILES (rising): some entries from above.
SMILES	YopH inh	Mtb bLac sens	Mtb growth	Arbovirus inh	RecA splice inh	others
O=S1(=O)C=C(N2CCOCC2)c2ccccc21	-43	-11	-3%	-1	0.4
NS(=O)(=O)c1ccc(Sc2ccccn2)c([N+](=O)[O-])c1	x	21	-6%	x	-0.5
O=C(Nc1cccc(Cl)c1)c1cc(S(=O)(=O)N2CCOCC2)cs1	x	-26	x	x	0.8
Cc1ccc(S(=O)(=O)N2CCC(C(=O)NNC(=O)c3ccncc3)CC2)cc1	x	-8	-35%	6	-4.0
CCCn1c2ccccc2c2cnn(CC(=O)NCCCN3CCN(c4ccccc4)CC3)c(=O)c21	x	50	x	x	1.9

The list goes on.
SMILES	YopH inh	Mtb bLac sens	Mtb growth	Arbovirus inh	RecA splice inh	others
CCCN1C(=O)C(Cc2nc3ccccc3c(=O)n2C)c2ccccc21 (configuration not stated)	27	8	2%	-4	x
C=CCN(c1ccccc1C(=O)O)S(=O)(=O)c1ccc(C)cc1	x	2	0%	16	-1.3
CCOc1ccc(-n2ccnc2SCC(=O)NCc2ccc3c(c2)OCO3)cc1	-55	-6	5%	-7	4.8
O=C(NCc1ccc(F)cc1)c1cc(-c2cccs2)on1	-36	-10	3%	-5	1.3
CC(=O)Nc1c2c(nn1-c1cccc(C)c1)CSC2	x	0	x	x	2.1
C/C(CC(=O)Nc1ccc2c(c1)OCCO2)=N\NC(=O)c1ccccc1Cl	x	10	x	x	-0.5
CCOC(=O)C1C(C)=C(Nc2ccc(OC)cc2)C(=O)N1c1ccc(OC)cc1 (configuration not stated)	-26	-2	46%	-6	2.7
CC(O)c1nc2ccccc2n1CC(=O)Nc1ccc(F)cc1Cl (configuration not stated)	x	10	2%	1	-0.6
COc1cc(C(=O)NNC(=O)C2CCCC2)cc(OC)c1OC	x	-4	x	x	-0.5
CCOc1ccc(-c2[nH]ncc2Oc2ccccc2OC)c(O)c1	-32	4	-9%	-23	3.8
CCC(=NCc1cc(OC)cc(OC)c1)c1c(O)n(C)c(=O)n(C)c1=O	12	0	10%	10	x
O=C(NC1CCN(Cc2ccccc2)CC1)c1cccc(S(=O)(=O)Nc2cc(C(F)(F)F)ccc2Cl)c1	-24	-4	11%	33*	3.5
Cn1c(=O)c2c(nc(SCC(=O)NC3CCCC3)n2C)n(C)c1=O	x	2	x	x	-0.6
Cc1cccc(C2c3[nH]c4ccccc4c3CCN2C(=O)c2cc(CC(C)C)[nH]c(=O)n2)n1 (configuration not stated)	x	9	-2%	-4	15
COCCNC(=O)C1(C)C=CC2(CCCCC2)N1C(=O)c1ccccc1 (configuration not stated)	-37	9	-8%	6	0.5
Cc1cc(OCC(=O)C(C)(C)C)c2c(C)c(C)c(=O)oc2c1	0	-4	1%	-7	-0.4	Arbovirus inh repeat=-4
O=C(O)CC(NNC(=O)c1ccccc1)C(=O)Nc1ccc([N+](=O)[O-])cc1 (configuration not stated)	x	-8	-12%	x	2.1
CC(=O)c1c(C)[nH]c(C2=NNC(=NC(C)(C)C)SC2)c1C	x	3	-4%	-1	-0.1
COc1cc(C(=O)NC(=S)N(CCc2ccccc2)CCc2ccccc2)cc(OC)c1OC	-8	2	5%	-13	8.1
CN1N=C2c3ccccc3CCC2C1c1ccc(C(F)(F)F)cc1 (configuration not stated)	x	-3	-11%	x	1.4
CCCCC(=O)Nc1c2c(nn1-c1ccc([N+](=O)[O-])cc1)CS(=O)(=O)C2	x	1	x	x	-0.9
CCN1CCCC1CNCc1ccccc1OCc1ccc(F)cc1 (configuration not stated)	-24	6	-2%	-4	-0.7
O=C(NNC(=O)c1ccc(F)cc1F)c1ccc(-n2cnnn2)cc1	x	2	x	x	-0.9
Cc1occc1C(=O)N/N=C/C(Br)=C/c1ccccc1	x	11	15%	29	3.4
Cc1cccc(NC(=O)CSc2nnc(Cc3ccccc3)o2)c1	x	0	2%	0	-5.1

Continued:
SMILES	YopH inh	Mtb bLac sens	Mtb growth	Arbovirus inh	RecA splice inh	others
CCN(CC)C1CCCCC1NS(=O)(=O)c1ccc(Cl)cc1 (configuration not stated)	-9	-1	0%	-3	-2.9	Arbovirus inh repeat=2
O=C(c1ccco1)N1CCN(c2nc3ccccc3c(=O)n2-c2ccccc2)CC1	-27	4	-11%	4	3.2
O=C(OCCN1C(=O)c2ccccc2C1=O)c1ccc(S(=O)(=O)N2CCCCCC2)cc1	-24	-1	-6%	2	0.3
Cc1cccnc1NC(=O)C1COc2ccccc2O1 (configuration not stated)	x	-3	4%	7	-0.9
CCOc1cc(C=O)c(Br)cc1OC1CCCC1	3	11	7%	-6	7.3
Cc1cccc(Cn2c(SCC(=O)Nc3ccccc3)nc3c2c(=O)[nH]c(=O)n3C)c1	-26	-2	2%	2	1.8	Arbovirus inh repeat=0
CSc1ccccc1C(=O)N1CCCCC1	x	-1	10%	5	-4.3
Cc1cccc(NC(=O)CN2C(=O)S/C(=C\c3cccn3-c3cccc(C(=O)O)c3)C2=O)c1	x	-5	-12%	-15	-4.8
COc1ccc(-c2nnc(NC(=O)c3ccccc3C)o2)cc1	x	99	0.94µM*	-6	-0.4	Arbovirus inh repeat=-6
COc1ccc2c(c1)c1ncn(CC3CCCO3)c(=O)c1n2C (configuration not stated)	x	-1	-3%	x	-2.5
C/C(=N\NC(=O)c1nnn(-c2nonc2N)c1-c1cccs1)c1cccnc1	x	3	x	x	-1.2
O=C(c1ccc(CS(=O)c2ccccc2Cl)o1)N1CCOCC1 (configuration not stated)	x	-2	x	x	-0.5
Cc1cccc2cc(C#N)c(N3CCN(C)CC3)nc12	-33	3	-10%	-5	0.0
Cn1c(SCC(=O)NC2CC2)nnc1C(F)(F)F	-23	-4	-20%	4	-3.9
CCN1CCN(CCCNC(=O)C2c3ccccc3C(=O)N(c3ccc(OC)cc3)C2c2ccc(OC)cc2)CC1 (configuration not stated)	x	-2	5%	3	-0.1
CCNc1ccc(C(=O)OCC(=O)NCc2ccc(C)cc2)cc1[N+](=O)[O-]	-21	-2	-9%	-5	0.6
Nc1c(N(Cc2ccccc2)C(=O)COc2cccc(Cl)c2)c(=O)[nH]c(=O)n1Cc1ccccc1	x	3	x	x	0.9
N#Cc1cc[n+](CC(=O)c2ccc(NC(=O)c3ccccc3)cc2)cc1	x	5	x	x	2.7
N#Cc1cccc(C#N)c1Oc1ccc(N)cc1	x	-7	-8%	x	-0.5
COc1ccc(C23CC4CC(CC(C(=O)O)(C4)C2)C3)c(F)c1	x	-1	x	x	0.6
Cc1nc2sccn2c1-c1nc(-c2cc3ccccc3o2)cs1	-9	97	x	19	6.7
Fc1ccc(/C=C2\CCCC3=C2Nc2ncnn2C3c2ccc(F)cc2)cc1 (configuration not stated)	-16	77	8%	-48	x
COc1ccc(C(=O)C2CCCN(S(=O)(=O)c3cccc(C)c3)C2)c(C)c1 (configuration not stated)	x	-11	x	x	23
O=C(Nc1ccccc1F)C1(c2ccccc2)CC1(Cl)Cl (configuration not stated)	-15	x	2%	6	4.2
CC(=O)N1CCN(C(=O)Nc2cccc(C(F)(F)F)c2)CC1	-17	0	1%	16	1.0

Next section (2 carried over from the part before).
SMILES	YopH inh	Mtb bLac sens	Mtb growth	Arbovirus inh	RecA splice inh	others
O=C(Nc1ccccc1F)C1(c2ccccc2)CC1(Cl)Cl (configuration not stated)	-15	x	2%	6	4.2
CC(=O)N1CCN(C(=O)Nc2cccc(C(F)(F)F)c2)CC1	-17	0	1%	16	1.0
Cc1cccc(NC(=S)N2CCN(c3ccccc3)CC2)c1	x	-2	-9%	10	-3.7
CCO[C@H]1OC(C(=O)O)=C[C@@H](C(C)(C)C)[C@@H]1CCCO	x	-3	-8%	x	0.1
S=C(NCc1ccccc1)Nc1ccc2cn[nH]c2c1	x	1	-2%	x	5.9
CN(C)S(=O)(=O)c1cccc(NC(=O)c2ccc(Sc3nncn3C)c([N+](=O)[O-])c2)c1	x	-4	1%	1	0.5
CNC(=O)c1c(NC(=O)c2ccco2)sc2c1CCC2	x	u	x	x	-3.6
C/C(=N\Nc1ccc(Cl)cc1)c1ccccn1	-21	100	u	-31	3.1
Cn1c(N2CCN(c3ccccn3)CC2)nc2c1c(=O)n(Cc1ccc(Cl)cc1)c(=O)n2C	-3	98	33%	-18	13
COc1ccc(S(=O)(=O)Nc2ccc(F)cc2)cc1N(C)S(=O)(=O)c1ccc(Cl)cc1	-34	-5	5%	-3	8.0
Cc1cc(C)n(-c2nc(N(C)C)nc(N3CCOCC3)n2)n1	-3	-11	-5%	7	-0.8
Cc1nn(C(C)C(=O)NCCN2CCCC2)c(=O)c2c1sc1ccccc12 (configuration not stated)	x	0	x	x	3.5
O=C(NNc1nc2c(F)cccc2s1)c1ccccc1	x	2	1%	14	5.7
O=C(c1ccc(Br)o1)N(c1ccc(Br)cc1)C1C=CS(=O)(=O)C1 (configuration not stated)	-37	-1	-2%	4	0.0
Cc1ccc(SCC(=O)O/N=C(\N)c2ccncc2)cc1	x	u	x	x	3.0
Cc1ccc(NC(=O)Nc2nnc(CSCCOc3ccc(Cl)cc3)s2)cc1	2	-9	5%	-6	0.5
Cc1ccc(-c2n[nH]c(=O)c3ccccc23)cc1S(=O)(=O)NCCO	2	-3	-11%	10	-3.5
COc1ccc(NC(=O)CN(C)C(=O)c2ccc3[nH]c4c(c3c2)CC(C)CC4)cc1 (configuration not stated)	x	4	x	x	-4.5
Cc1cc(NC(=O)c2c(-c3c(Cl)cccc3Cl)noc2C)n(C)n1	x	3	-7%	x	1.0
Cn1c(=O)n(C)c2cc(NC(=O)COc3ccc(F)cc3F)ccc21	x	-2	x	x	0.6
COc1ccccc1C(=O)N/C(=C\c1cn(S(=O)(=O)N(C)C)c2ccccc12)C(=O)N1CCCC1	x	7	x	x	-0.1
Cc1nc2ccccc2cc1OCc1ccc(Cl)cc1	-6	65	9%	15	1.8
O=C(Cc1cccs1)Nc1nnc(-c2ccncc2)s1	-38	-4	2%	-21	-5.3	Arbovirus inh repeat=-9

Screening results as filed in PubChem BioAssay.
